Compound activity: PubChem BioAssay, National Center for Advancing Translational Sciences (NCATS)
ClpP mod: qHTS Assay for Activators of ClpP; ATP-dependent Clp protease proteolytic subunit (Bacillus subtilis (strain 168)), P80244; purified B. subtilis ClpP, FRET peptide cleavage, 20 min; Potency, µM (top dose mostly 57.5 µM), for the others: top-dose activity change, negative = active; hit rate 1.9% among 340,000; AID 651965, 2013; active = well fitted falling curve with a large enough effect; inconclusive = small, poorly fitted or top-dose-only effect; inactive = no such curve, though single readings can be large or run the other way; also: potency is read from the fitted curve at half-maximal effect; the source files actives as falling curves though it sought activators and does not explain the sign; nearly all actives have a fitted effect of over 65% in size; many hits overshoot -100%
Target sequence (P80244 whole entry, looked up): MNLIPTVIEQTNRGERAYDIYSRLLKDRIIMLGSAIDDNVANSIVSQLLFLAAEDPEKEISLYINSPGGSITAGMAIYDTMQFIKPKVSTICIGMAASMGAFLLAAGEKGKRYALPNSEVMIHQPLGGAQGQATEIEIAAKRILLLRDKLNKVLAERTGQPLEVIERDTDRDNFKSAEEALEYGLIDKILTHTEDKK
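Purified B. subtilis ClpP, 10 microg/mL final in Tris/HCl pH8 with KCl, BSA, glycerol and Tween-20, cleaved an Abz/nitrotyrosine-quenched decapeptide. Fluorescence (ex 320, em 430) was read at 0 and 20 min at room temperature. Delta was normalized to 5.8 microM ADEP and DMSO/no-enzyme controls.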
gsp antag: qHTS for Antagonists of gsp, the Etiologic Mutation Responsible for Fibrous Dysplasia/McCune-Albright Syndrome: qHTS; gsp-mutant cells, cAMP HTRF, 30 min; control for the full effect not named in the record; Potency, µM (doses to about 76.9 µM), for inactives: top-dose activity change, negative = inhibition, actives largely listed as inhibitors; hit rate 0.4% among 340,000; AID 624288, 2012; active = falling curve of any shape with a large fitted effect; inconclusive = falling curve, mostly with a smaller effect; inactive = flat or rising curve; cell line not stated here;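 also: intracellular cAMP measured with PDE inhibitor Ro 20-1724 present during compound exposure; potency is read from the fitted curve at half-maximal effect; % is scaled to controls: 0 for no effect and ±100 for the full control effect; nearly all actives have a fitted effect of over 65% in size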
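G418-selected cells were plated in DMEM/10% FBS for 16-24 h at 37C, then treated with compounds plus the PDE inhibitor […] (300 uM solution added) for 30 min at 37C. Intracellular cAMP was measured by HTRF after 30 min lysis at room temperature.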
gsp agonist: qHTS for Agonist of gsp, the Etiologic Mutation Responsible for Fibrous Dysplasia/McCune-Albright Syndrome: qHTS | Potency, µM (doses to about 76.9 µM), for inactives: at the highest dose activation (cAMP increase), usual class: activators | hit rate 0.13% among 340,000 | gsp mutant cells, cAMP HTRF, 30 min; control for the full effect not named in the record | AID 624287, 2012; active = well fitted activation curve with a large enough effect; inconclusive = small, poorly fitted or top-dose-only effect, or another doubt; inactive = no such curve, though single readings can be large or run the other way; cell line not stated here;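 also: phosphodiesterase inhibitor Ro 20-1724 added with compounds to block cAMP breakdown; potency is read from the fitted curve at half-maximal effect; nearly all actives have a fitted effect of over 60% in size; about a fifth of the inactives were tested at one dose only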
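Cells stably selected in G418 were plated at 2000/well, grown 16-24 hr, then given compounds in DMSO with the PDE inhibitor […] (300 uM solution added) for 30 min at 37C; cAMP was read by HTRF.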
Sfp PPTase inh: qHTS Assay for Inhibitors of Bacillus subtilis Sfp phosphopantetheinyl transferase (PPTase); 4'-phosphopantetheinyl transferase ffp (Bacillus subtilis), Q9F4F7; Biochemical Sfp PPTase activity, qHTS; Potency, µM, for the others: max response, negative = inhibition, actives largely listed as inhibitors; hit rate 3.5% among 310,000; AID 1490, 2009; active = well fitted inhibition curve with a large enough effect; inconclusive = small, poorly fitted or top-dose-only effect, or another doubt; inactive = no such curve, though single readings can be large or run the other way;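 also: the enzyme is Sfp with the accession as filed and its product quenches rhodamine fluorescence; potency is read from the fitted curve at half-maximal effect; 0% = enzyme reaction without inhibitor and -100% = no enzyme wells; top concentration of the series not given in the record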
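Fluorescence-quenching assay: 15 nM Sfp-PPTase preincubated 15 min at room temperature with compound, then 5 uM rhodamine-CoA and 12.5 uM BHQ-2-labelled YbbR peptide added. Fluorescence (ex 525/em 598 nm) read at start and after 30 min; difference gives rate.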
PINK1 modulator: A Quantitative High throughput Screen to Identify Chemical Modulators of PINK1 Expression | PINK1 immunofluorescence, high-content cytometry, 24 h | Potency, µM (doses to about 76.6 µM), without a hit: at the top dose activation (PINK1 increase), usual class: activators | hit rate 0.2% among 410,000 | AID 624263, 2012; active = well fitted activation curve with a large enough effect; inconclusive = small, poorly fitted or top-dose-only effect; inactive = flat fitted curve, though single readings scatter; cell line not stated here;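 also: potency is read from the fitted curve at half-maximal effect; % of control where 0% means no effect; nearly all actives have a fitted effect of over 65% in size; a mitochondrial uncoupler was the plate control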
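PINK1 protein level read as immunofluorescence by microplate cytometer in a fixed, stained stable cell line after 24 h exposure to five compound concentrations, with CCCP as control.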
Menin-MLL FL inh: qHTS Assay for Inhibitors Targeting the Menin-MLL Interaction in MLL Related Leukemias: Competition With Fluorescein Labeled MLL-derived Peptide | Fluorescence polarization, fluorescein-MLL peptide displacement from menin | FP activity change, % at 61.4 µM | 290,000 tested, under 10 active | AID 1766, 2009; inconclusive = falling polarisation curve, or a change in total fluorescence; inactive = total fluorescence flat and polarisation flat or rising; no compound was filed as active; the % refers to the polarisation; negative = inhibition;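 also: % of control where 0% means no effect; inhibitors lower the polarisation; unlabelled MLL peptide was the positive control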
D2 agonist: Beta-Arrestin HTS for Positive Allosteric Modulators of the Human D2 Dopamine Receptor: Agonists; D(2) dopamine receptor (Homo sapiens), P14416; DiscoveRx PathHunter D2 beta-arrestin, luminescence, 90 min; 100% = 57 uM dopamine signal; activation, % (no concentration beside the values); hit rate 0.084% among 360,000; in the data active = activation above about 40%; inconclusive = about 15% to 40%; inactive = below about 15%; also: compound concentration not given in the record; the text of the record calls up to 30% inactive
Target sequence (P14416 whole entry, looked up): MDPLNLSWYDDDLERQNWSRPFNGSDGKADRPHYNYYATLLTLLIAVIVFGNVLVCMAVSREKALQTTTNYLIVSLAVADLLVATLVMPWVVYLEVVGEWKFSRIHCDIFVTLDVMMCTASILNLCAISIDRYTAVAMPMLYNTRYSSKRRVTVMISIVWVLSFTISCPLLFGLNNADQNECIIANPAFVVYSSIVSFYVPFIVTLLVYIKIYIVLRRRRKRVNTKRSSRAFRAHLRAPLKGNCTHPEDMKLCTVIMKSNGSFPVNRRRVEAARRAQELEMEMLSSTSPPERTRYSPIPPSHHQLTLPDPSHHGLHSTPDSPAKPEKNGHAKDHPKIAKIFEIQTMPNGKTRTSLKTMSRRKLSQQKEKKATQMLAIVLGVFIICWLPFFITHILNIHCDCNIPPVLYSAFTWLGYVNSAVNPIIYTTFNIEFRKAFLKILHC
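DiscoveRx PathHunter D2 beta-arrestin cells (2,100/well) attached overnight, then compound-stimulated 90 min at 37 C in HBSS/10 mM HEPES/0.1% Tween-20 buffer; beta-galactosidase complementation read by luminescence after 1 h at ambient temperature. Dopamine 57 uM final (EC100) as control.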
* marks the source's active call; other numbers are inactive results; [ ] = dose if it differs, or a comment. Compounds as they come (roughly 5.1% active in at least one column).

`COCCNC(=O)/C(C#N)=C/c1ccc(-c2ccc(S(=O)(=O)N3CCOCC3)cc2)o1` gave ClpP mod -0.9%, gsp antag -6%, gsp agonist 4%[15.4 µM], Sfp PPTase inh -21%, PINK1 modulator 2.2%, Menin-MLL FL inh 9.5 and D2 agonist -3.6.
O=C(c1ccc(CSc2ccc(Cl)cc2)o1)N1CCOCC1 was read as ClpP mod -0.5%, PINK1 modulator 1.5% and D2 agonist -1.5.
Screening N#C/C(=C\c1ccc(N2CCCCC2)c([N+](=O)[O-])c1)c1nn(-c2ccccc2)c(N)c1C#N returned ClpP mod -2.5%, gsp antag -7%, gsp agonist -10%, Sfp PPTase inh 14%, PINK1 modulator 2.0%, Menin-MLL FL inh 3.3 and D2 agonist -2.6.
`COc1ccc(-c2cnnn2-c2ccc(NC(=O)c3ccco3)cc2)cc1OC` gave ClpP mod -1.6%, gsp antag 14%, gsp agonist -21%, Sfp PPTase inh 8%, PINK1 modulator 2.2%[38.3 µM], Menin-MLL FL inh 0.2 and D2 agonist 0.0.
Screening O=C1OCC/C1=C1/NCCNC1=O returned ClpP mod 1.1%, gsp agonist 26%, PINK1 modulator 1.7% and D2 agonist -4.9.
`Cc1c(NC(=O)CN2C(=O)NC3(CCC(C)CC3)C2=O)c(=O)n(-c2ccccc2)n1C` (configuration not stated) gave gsp antag 12%, gsp agonist -12%[15.4 µM], Sfp PPTase inh 14%, PINK1 modulator 0.4%, Menin-MLL FL inh 0.3 and D2 agonist -4.0.
For CCn1c(-c2csc(-c3ccc(Cl)cc3)n2)n[nH]c1=S the results were ClpP mod -3.3%, gsp antag 0%, gsp agonist 0%, Sfp PPTase inh 9%, PINK1 modulator 1.2%, Menin-MLL FL inh 0.9 and D2 agonist -4.5.
CN(C)S(=O)(=O)c1ccc(Cl)c(NC(=O)COC(=O)C2CSC3(C)CCC(=O)N23)c1 (configuration not stated) was read as ClpP mod -1.0%, gsp antag 6%, gsp agonist 9%[15.4 µM], Sfp PPTase inh 7%, PINK1 modulator 0.8% and D2 agonist -4.9.
Cc1cc(C)nc(SCC(=O)Nc2cc(C)on2)n1 was read as ClpP mod 0.0%, gsp antag 9%, gsp agonist -20%, Sfp PPTase inh 12%, PINK1 modulator -2.3%, Menin-MLL FL inh 1.0 and D2 agonist 1.1.
For CC1(C)Cc2c(c(-c3ccco3)nc3sc4c(NCCCO)ncnc4c23)CO1 the results were ClpP mod 3.7%, gsp antag 0%, gsp agonist 3%, Sfp PPTase inh 7.9µM*, PINK1 modulator 1.3%, Menin-MLL FL inh 12 and D2 agonist 0.7.
For COc1ccccc1CSc1nc2ccccc2[nH]1 the results were ClpP mod 0.2%, gsp antag 1%, gsp agonist -57%[inhibitor], Sfp PPTase inh 13%, Menin-MLL FL inh 0.1 and D2 agonist -1.5.
CCOC(=O)N1CCN(S(=O)(=O)c2ccc(OC)c(Br)c2)CC1 was read as ClpP mod 2.3%, gsp antag -2%, gsp agonist 0%, Sfp PPTase inh 16%, PINK1 modulator -0.8%, Menin-MLL FL inh -3.3 and D2 agonist 0.8.
`CCN(CC)C(=O)C1CCCN(C(=O)Nc2ccccc2)C1` (configuration not stated) gave ClpP mod -2.3%, gsp antag -5%, gsp agonist 19%, Sfp PPTase inh 12%, PINK1 modulator 20%[38.3 µM], Menin-MLL FL inh 0.3 and D2 agonist -0.6.
`COc1ccc(N/C=C/C(=O)c2cc(OC)c(OC)c(OC)c2)cc1` gave gsp antag -13%, gsp agonist 4%, Sfp PPTase inh -1%, PINK1 modulator 1.7%, Menin-MLL FL inh 7.0 and D2 agonist 1.3.
Screening COc1ccc(C)cc1NC(=O)c1ccc(N(C)S(C)(=O)=O)cc1 returned ClpP mod -2.8%, gsp antag 0%, gsp agonist 4%, Sfp PPTase inh 10%, PINK1 modulator 0.4%, Menin-MLL FL inh 6.2 and D2 agonist -0.3.
Screening CCc1ccccc1N1C(=O)C2CC(C)=C(C)CC2C1=O (configuration not stated) returned ClpP mod 1.3%, gsp antag -2%, gsp agonist -19%, Sfp PPTase inh 12%, PINK1 modulator 1.7%, Menin-MLL FL inh 2.4 and D2 agonist -3.4.
`Cc1ccc(S(=O)(=O)CCSc2cccc(C(=O)Nc3ccccc3C(=O)O)c2)cc1` gave ClpP mod -2.6%, gsp antag -26%, gsp agonist 6%, Sfp PPTase inh -10%, PINK1 modulator 0.8%, Menin-MLL FL inh 3.7 and D2 agonist 0.4.
CC(=O)c1ccc(NC2=C(N3CCOCC3)C(=O)c3ccccc3C2=O)cc1 was read as ClpP mod 0.3%, gsp antag -23%, gsp agonist -91%[inhibitor], Sfp PPTase inh -6%, PINK1 modulator inconclusive, Menin-MLL FL inh 3.3 and D2 agonist 4.6.
S=C(c1c[nH]c2ccc(Br)cc12)N1CCOCC1 was read as ClpP mod -0.7%, gsp antag -1%, gsp agonist -23%, Sfp PPTase inh 18%, PINK1 modulator 0.0%, Menin-MLL FL inh 0.8 and D2 agonist -0.1.
`O=C(OCC(=O)N1CCCCC1)c1n[nH]c(=O)c2ccccc12` gave gsp antag 9%, gsp agonist 27%[15.4 µM], PINK1 modulator 0.6% and D2 agonist -2.1.
For COc1ccc(NC(=O)C2CCN(S(=O)(=O)c3ccc(OC)c(OC)c3)CC2)c(OC)c1 the results were ClpP mod -1.0%, gsp antag -3%, gsp agonist 9%, Sfp PPTase inh -1%, PINK1 modulator -4.0%[38.3 µM], Menin-MLL FL inh -1.9 and D2 agonist 2.1.
For O=C(Cn1cccc1C(=O)c1ccccc1)NCCc1ccccc1 the results were ClpP mod -1.2%, gsp antag 6%, gsp agonist 3%, Sfp PPTase inh 8%, PINK1 modulator -0.4%, Menin-MLL FL inh 0.3 and D2 agonist 0.3.
Screening COc1ccc(-c2cnc3c(NC=O)cc(-c4ccccc4)cn23)cc1OC returned ClpP mod -18%, PINK1 modulator 2.3% and D2 agonist 12.
`COc1cc2[nH]c(C(=O)N(C)C3CCS(=O)(=O)C3)cc2c(OC)c1OC` (configuration not stated) gave ClpP mod -13%, gsp antag 11%, gsp agonist 19%, Sfp PPTase inh 15%, PINK1 modulator -0.2% and D2 agonist -1.3.
For O=C(Nc1ccccc1-c1ccccc1)C1CCCC1 the results were gsp antag -1%, gsp agonist -14%, Sfp PPTase inh 11%, PINK1 modulator 4.2%, Menin-MLL FL inh 1.2 and D2 agonist 1.5.
COc1cc(/C=C/C(=O)O)cc(S(=O)(=O)Nc2ccc3c(c2)CCC3)c1OC was read as gsp antag 11%, gsp agonist inconclusive, Sfp PPTase inh -1%, PINK1 modulator 2.0%, Menin-MLL FL inh -1.3 and D2 agonist -0.9.
Cn1c(=O)c2[nH]c(CCc3ccncc3)nc2n(C)c1=O was read as gsp antag 13%, gsp agonist inconclusive, PINK1 modulator 2.7% and D2 agonist 0.8.
For C[C@H](Nc1ccc(C(F)(F)F)cc1[N+](=O)[O-])C(=O)O the results were ClpP mod -1.4%, gsp antag 1%, gsp agonist -15%, Sfp PPTase inh 23%, PINK1 modulator 1.0%, Menin-MLL FL inh -0.1 and D2 agonist -2.5.
`O=C(COC(=O)c1cc[n+]([O-])cc1)Nc1ccc(Br)cc1` gave ClpP mod 0.7%, gsp antag 12%, gsp agonist 8%, PINK1 modulator -1.5% and D2 agonist 2.1.
Screening COC(=O)CCc1c(C)c(C(=O)c2cccc(OC)c2OC)c2ccccn12 returned ClpP mod -1.2%, gsp antag -4%, gsp agonist inconclusive, Sfp PPTase inh 4%, PINK1 modulator -1.1%, Menin-MLL FL inh 1.8 and D2 agonist -4.9.
Screening O=C(Oc1csc(=S)n1C(=O)c1ccccc1)c1ccccc1 returned ClpP mod 8.9µM*, gsp antag -4%, gsp agonist -36%[inhibitor], Sfp PPTase inh 40µM*, PINK1 modulator 1.4%, Menin-MLL FL inh 6.4 and D2 agonist -13.
N#Cc1ccc(C(=O)OCC(=O)N2CCCCCC2)cc1 was read as gsp antag 10%, gsp agonist 0%[15.4 µM], PINK1 modulator 1.8% and D2 agonist 5.8.
Screening O=C(Nc1ccc2ccccc2n1)Nc1cccs1 returned gsp antag 7%, gsp agonist -4%, Sfp PPTase inh 1%, PINK1 modulator 4.6%, Menin-MLL FL inh 4.3 and D2 agonist 1.8.
`CCOC(=O)C1=C(CSc2nc(-c3ccccc3)ccc2C#N)OC(N)=C(C#N)C1c1ccccc1` (configuration not stated) gave ClpP mod 9.5%, gsp antag -14%, gsp agonist 3%, Sfp PPTase inh -28%, PINK1 modulator 0.4%, Menin-MLL FL inh inconclusive and D2 agonist -0.5.
CCCOc1ccc(OCCSc2nnc(N)s2)cc1 was read as ClpP mod 1.0%, gsp antag 1%, gsp agonist 0%, Sfp PPTase inh 8%, PINK1 modulator 4.4%, Menin-MLL FL inh 0.9 and D2 agonist -0.8.
`C=C1CCN([C@@H](CC(C)C)C(=O)NN2CCOCC2)S(=O)(=O)c2ccccc21` gave ClpP mod -2.4%, gsp antag 6%, PINK1 modulator 2.9% and D2 agonist 0.2.
`Cc1cc2c(cc1C)NC(=O)CC(C(F)(F)C(F)(F)C(F)(F)F)=N2` gave ClpP mod -0.7%, gsp antag -9%, gsp agonist -2%, Sfp PPTase inh 3%, PINK1 modulator 9.4%, Menin-MLL FL inh 3.4 and D2 agonist -1.8.
COC(=O)c1sc(NC(=O)COc2ccccc2)nc1C was read as ClpP mod -3.1%, gsp antag -1%, gsp agonist 3%, Sfp PPTase inh 12%, PINK1 modulator -0.2%, Menin-MLL FL inh -0.8 and D2 agonist -2.2.
`CN(CC(=O)Nc1c(Cl)cccc1Cl)C(=O)CCc1nc2sc3c(c2c(=O)[nH]1)CCCC3` gave ClpP mod -4.9%, gsp antag -8%, gsp agonist 15%, PINK1 modulator -1.0% and D2 agonist -5.6.
